Screens (PubChem)
Rango dissoc inh: qHTS Assay for Inhibitors of RanGTP induced Rango (Ran-regulated importin-beta cargo) - Importin beta complex dissociation; Biochemical FRET Rango-importin beta, RanGTP-induced dissociation; Potency, µM (titrated, usually from 46.1 µM), for the others: at the top dose activity change, negative = inhibition; actives 0.071% (n = 340,000); active means falling FRET ratio curve, often poorly fitted, with flat reads before Ran was added; inconclusive means other falling curves, or compound fluorescence or quenching; inactive means flat or rising ratio curve;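 also: potency is read from the fitted curve at half-maximal effect; % of control where 0% means no effect; nearly all actives have a fitted effect of over 45% in size; -100% = wells without RanGTP and RCC1; the record marks most hits as doubtful in a second field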
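Compounds preincubate 5 min with complex of recombinant Rango and importin beta in PBS with 1 mM DTT. Ran (0.6 uM) loaded with 2 mM GTP plus 0.2 uM RCC1 starts dissociation; FRET is recorded 45 min later.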
Rango-impB inh: qHTS Assay for Inhibitors of Rango (Ran-regulated importin-beta cargo) - Importin beta complex formation. Importin subunit beta-1 (Homo sapiens), Q14974. Rango CFP/YFP FRET sensor + importin beta, 45 min. Potency, µM (titrated, usually from 92.2 µM), without a hit: at the highest dose inhibition of complex formation. actives 0.031% (n = 340,000); active = rising FRET ratio curve, often small or poorly fitted; inconclusive = mostly compound fluorescence or quenching in the first reads; inactive = flat curves in all reads;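 also: potency is read from the fitted curve at half-maximal effect; 0% = DMSO wells and 100% = buffer wells lacking importin beta; nearly all actives have a fitted effect of over 15% in size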
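FRET biosensor (snurportin 1 IBB flanked by EYFP and cerulean), 50 nM, with compound 5 min, then 0.125 microM importin beta in PBS, 1 mM DTT, 0.02% Tween-20, 0.1% BSA. CFP/YFP ratio read after 45 min at room temperature; pre-read flags interference.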
miR-21 FLuc: qHTS Assay for Modulators of miRNAs and/orActivators of miR-21; Potency, µM (highest dose often 38.3 µM), for the others: top-dose reporter change, positive = more light; 340,000 tested, under 10 active; AID 2288, 2010; HeLa miR-21 FLuc reporter, luciferase, 48 h; active = well fitted rising curve with a large enough effect; inconclusive = small, poorly fitted or top-dose-only effect; inactive = no such curve, though single readings can be large or run the other way;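 also: % of control where 0% means no effect; miR-21 action dims this reporter so a rising signal means less miR-21 action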
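HeLa miR-21-FLuc reporter line, endogenous miR-21; 2000 cells/well in DMEM/10% FBS; compound titration up to ~40uM final, 48 h, 37 degree Celsius; luciferase detection reagent, 15 min lysis, CCD luminescence.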
GLA inh pH 4.5: qHTS Assay for Inhibitors of Human alpha-Galactosidase at pH 4.5; Alpha-galactosidase A (Homo sapiens), P06280; 230,000 tested, under 10 active; activity change, negative = inhibition, % at 105 µM; purified enzyme, 4-MU-alpha-Gal fluorescence, pH 4.5; AID 1467, 2008; inconclusive = small, poorly fitted or top-dose-only inhibition, or a rising curve; inactive = flat fitted curve, though single readings scatter; no compound was filed as active;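 also: 0% = full activity with enzyme and -100% = basal without enzyme; dose as in the result columns while the protocol names 77 µM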
Target sequence (P06280 whole entry, looked up): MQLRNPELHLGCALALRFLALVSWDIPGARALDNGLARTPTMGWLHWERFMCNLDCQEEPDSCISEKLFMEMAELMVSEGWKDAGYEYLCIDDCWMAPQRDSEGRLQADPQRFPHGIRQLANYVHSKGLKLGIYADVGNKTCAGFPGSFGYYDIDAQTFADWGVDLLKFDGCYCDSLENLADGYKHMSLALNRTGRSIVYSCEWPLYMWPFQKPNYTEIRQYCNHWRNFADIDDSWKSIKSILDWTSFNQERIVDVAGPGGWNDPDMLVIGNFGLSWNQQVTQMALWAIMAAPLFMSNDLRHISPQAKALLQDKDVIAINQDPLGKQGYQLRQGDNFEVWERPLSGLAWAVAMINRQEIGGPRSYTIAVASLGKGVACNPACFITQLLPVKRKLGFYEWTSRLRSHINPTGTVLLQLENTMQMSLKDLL
Starred values were filed as active, the others as inactive; u = inconclusive; x = not tested or not shown; & = joins results of further samples. Not all compounds are listed, so the mix of outcomes need not match the whole.

Rango-impB inh	GLA inh pH 4.5	miR-21 FLuc	Rango dissoc inh	Molecule
0.0%	10.5	-41.6%	5.8%	O=C(CSc1nc2ccccc2[nH]1)N1CCCCC1
1.2%	-7.3	-28.7%	2.4%	CSc1nc(N)nc(-c2cccs2)c1C#N
-1.2%	-8.2	-11.7%	0.4%	Cc1ccc(F)cc1NCC(=O)Nc1ccc(Cl)cc1F
0.6%	-4.4	1.5%	11.6%	Cc1ccc(N(Cc2ccco2)C(=O)c2cccc(S(=O)(=O)N(C)C)c2)cc1
0.1%	-1.0	-5.4%	-1.6%	O=c1[nH]cnc2c1sc1nc3c(c(-c4ccc(Cl)cc4)c12)CCC3
-3.4%	x	x	-19.8%	O=S(=O)(NCc1ccc(F)cc1)c1cc(Br)ccc1Br
1.3%	x	x	-15.6%	COc1ccccc1CNC(=O)CSc1ncc(C(=O)Nc2ccccc2)c(=O)n1C
9.2%	9.7	-1.0%	13.7%	O=C(CSCc1ccc(Cl)c(Cl)c1)Nc1c[nH]c(=O)[nH]c1=O

Next section; it opens with the 2 that closed the last part.
Rango-impB inh	GLA inh pH 4.5	miR-21 FLuc	Rango dissoc inh	Molecule
1.3%	x	x	-15.6%	COc1ccccc1CNC(=O)CSc1ncc(C(=O)Nc2ccccc2)c(=O)n1C
9.2%	9.7	-1.0%	13.7%	O=C(CSCc1ccc(Cl)c(Cl)c1)Nc1c[nH]c(=O)[nH]c1=O
5.3%	-4.2	-2.6%	-6.3%	Cc1ccc(Oc2nn[nH]n2)cc1
2.3%	-8.4	4.4%	7.5%	COc1cc(C(=O)NCc2cn3cccc(C)c3n2)cc(OC)c1OC
-5.9%	0.3	12.8%	0.9%	Cc1ccccc1OCC(O)CN1CCN(CCN2C(=O)c3cccc4cccc(c34)C2=O)CC1 (stereo unspecified)
-2.1%	-10.7	-6.9%	-4.0%	Cc1c(CCC(=O)O)c(=O)oc2cc3occ(-c4ccc(F)cc4)c3cc12
0.4%	-3.2	-0.5%	0.0%	CC(NC(=S)NNS(=O)(=O)c1ccc(C(C)(C)C)cc1)c1ccccc1 (stereo unspecified)
-2.5%	-1.5	0.5%	3.0%	CCCN(CCC)C(=O)CC(c1ccccc1)c1ccco1 (stereo unspecified)
0.7%	-7.0	-6.1%	4.9%	O=C(COc1ccc(Br)cc1)Nc1cc(S(=O)(=O)N2CCCCC2)ccc1N1CCCCC1
-3.8%	x	x	23.9%	COc1ccc(C(=O)NCC(=O)NCc2ccncc2)cc1
-2.1%	x	-16.7%	-7.0%	O=C(CSc1nnc(C2CC2)n1CC1CCCO1)Nc1ccc(Cl)cc1 (stereo unspecified)
u	x	10.5%	-10.8%	CCN1CCN(C2=C(NS(=O)(=O)c3ccc(Br)cc3)C(=O)c3ccccc3C2=O)CC1
u	x	-4.4%	u	COc1ccc(/C=C2\Oc3cc(OCC(=O)N4CC(O)C[C@H]4C(=O)O)ccc3C2=O)c(OC)c1OC (stereo partly specified)
-0.3%	1.5	1.0%	-0.8%	Nc1cc(OC(=O)c2cccs2)nn1S(=O)(=O)c1ccccc1
-1.8%	13.7	6.0%	-0.9%	NC(=O)CC1SC(N)=NC1=O (stereo unspecified)
u	x	1.3%	-9.5%	COc1ccc(C2=NS(=O)(=O)N(C)C(C(=O)NC3CCCCC3)=C2)cc1
3.5%	x	12.1%	3.5%	COc1cc(NC(=O)c2cc(C)no2)cc(OC)c1OC
3.3%	x	x	-8.6%	O=C(COC(=O)c1cc([N+](=O)[O-])ccc1N1CCOCC1)Nc1ccccc1OC(F)F
-1.8%	4.9	7.6%	11.8%	O=C(CN1C(=O)NC2(CCSC2)C1=O)N1CCN(c2ccc(F)cc2)CC1 (stereo unspecified)
3.5%	-7.5	-1.1%	-1.3%	O=S(=O)(Cc1ccccc1)Nc1ccc(S(=O)(=O)NCC2CCCO2)cc1 (stereo unspecified)
-4.0%	-8.9	-28.0%	-5.6%	CCOc1ccc(NC(=O)NCc2ccco2)cc1
-0.9%	-13.3	-16.6%	-5.7%	COc1cccc(C(=O)Nc2ccc(N3CCN(S(C)(=O)=O)CC3)cc2)c1
-0.4%	-3.0	0.1%	-2.2%	COc1ccc(NC(=O)CSc2nc3c(c(=O)n2-c2ccccc2OC)SCC3)cc1
4.0%	-4.5	-22.1%	-2.9%	Cc1ccc(N2C(=O)c3ccccc3C2Nc2ccc(S(=O)(=O)N3CCOCC3)cc2)nc1 (stereo unspecified)
-1.0%	x	-10.6%	-19.3%	CCn1c(=O)c(CCC(=O)NCCN2CCOCC2)c(C)c2c(C)nn(-c3cccc(C)c3)c21
-0.1%	x	-5.8%	-6.3%	Cc1cccc(C(=O)NC2CC3CCCC(C2)N3Cc2ccccc2)c1 (stereo unspecified)
0.2%	-9.0	-7.0%	29.3%	Cc1cc(C)nc(SC(C)CNS(=O)(=O)c2ccccc2)n1 (stereo unspecified)
0.3%	x	2.4%	30.2%	CSc1ncccc1C(=O)Nc1nccs1
-0.3%	x	-9.5%	0.4%	CS(=O)(=O)Nc1ccc2c(c1)ncn2CCc1ccccc1
-1.6%	-0.3	-2.5%	0.9%	COc1ccc(C(=O)NC(CO)c2nnc(SCc3ccc(Cl)c(Cl)c3)n2C)cc1 (stereo unspecified)
-0.5%	x	x	1.2%	O=C(COC(=O)c1cc(Cl)ccc1O)NCC1CCCO1 (stereo unspecified)
-0.4%	6.1	17.4%	4.0%	OCCNCc1cc(Br)ccc1OCc1ccccc1Cl
0.0%	-4.0	-5.0%	5.0%	Cc1cc(NC(=O)c2cccs2)n(-c2ccccc2)n1
-1.6%	x	-0.3%	7.4%	O=C(Nc1ccnn1C1CCN(Cc2cccc(F)c2F)CC1)C1CCCC1
9.9%	-15.1	22.8%	1.4%	O=C(N/N=C(\CC(=O)c1cccs1)C(F)(F)F)c1ccncc1
1.8%	-0.7	-6.4%	14.1%	COc1ccc(/C=C/C(=O)NC(=S)Nc2ccc(S(N)(=O)=O)cc2)cc1
1.9%	5.4	-1.2%	u	COc1ccc(C(=O)CN2C(=O)C(C)(C)Oc3ccc(C(=O)N4CCCCCC4)cc32)cc1
-2.7%	-5.4&1.2	x	-6.6%	CNC(=O)c1cc2c(cn1)[nH]c1ccccc12
-2.2%	x	-24.6%	-0.8%	O=C(NN=C1CCCC1)c1ccc(O)cc1O
1.2%	x	x	11.7%	O=C(/C=C/c1ccco1)OCC(=O)N1CCCCC1
-1.9%	-14.2	1.9%	10.6%	Cc1ccc(NC2OC(C(O)CO)C(O)C2O)cc1[N+](=O)[O-] (stereo unspecified)
2.2%	x	-23.5%	-3.2%	COc1ccc(Cc2nc3ccc(C(=O)N(C)C(C)c4ccon4)cc3o2)cc1 (stereo unspecified)
-1.8%	0.7	-0.8%	13.6%	COc1ccccc1-c1nnc(SCC(=O)N2CC(C)CC(C)C2)o1 (stereo unspecified)
6.9%	x	x	6.0%	CC1CCCCC12NC(=O)N(CC(=O)Nc1ccc3c(c1)OCCCO3)C2=O (stereo unspecified)
1.1%	x	x	-1.4%	COc1ccc(S(=O)(=O)N2CCN(c3cnccn3)CC2)cc1
2.6%	3.2	2.9%	-4.9%	Cc1ccccc1NC(=O)N1CCN(S(=O)(=O)c2ccccc2)CC1
4.2%	x	-1.7%	1.3%	COC(=O)COc1ccc(-c2nccc(-c3ccc(Br)cc3)n2)cc1
-0.2%	x	-2.2%	3.2%	COc1ccc(NC(=O)CCS(=O)(=O)c2cc3c(cc2C)NC(=O)CO3)cc1
-1.0%	6.7	-9.1%	1.0%	COC(=O)c1ccc(COc2ccc(-c3nnn(CC(=O)NC(C)(C)C)n3)cc2)cc1
u	-8.1	-5.8%	-8.3%	Oc1oc(-c2ccccc2Br)nc1C=Nc1ccc(Br)cn1

Some of these compounds in order of the GLA inh pH 4.5 value, ascending:
Rango-impB inh	GLA inh pH 4.5	miR-21 FLuc	Rango dissoc inh	Molecule
9.9%	-15.1	22.8%	1.4%	O=C(N/N=C(\CC(=O)c1cccs1)C(F)(F)F)c1ccncc1
1.2%	-7.3	-28.7%	2.4%	CSc1nc(N)nc(-c2cccs2)c1C#N
1.8%	-0.7	-6.4%	14.1%	COc1ccc(/C=C/C(=O)NC(=S)Nc2ccc(S(N)(=O)=O)cc2)cc1
1.9%	5.4	-1.2%	u	COc1ccc(C(=O)CN2C(=O)C(C)(C)Oc3ccc(C(=O)N4CCCCCC4)cc32)cc1

Next entries follow:
Rango-impB inh	GLA inh pH 4.5	miR-21 FLuc	Rango dissoc inh	Molecule
1.7%	x	x	-2.0%	O=C(Cc1ccc(S(=O)(=O)N2CCOCC2)s1)NCCOc1ccccc1F
-1.4%	0.9	-1.4%	-12.3%	O=C(c1ccccc1Oc1ccccc1)N1CCN(c2ccccc2)CC1
2.8%	x	-4.6%	7.0%	N/C(=N\OC(=O)CCC1CCCC1)c1ccc(Br)cc1
-0.5%	-1.4	-0.6%	4.2%	CCOC(=O)c1cc(NC(=O)c2cnccn2)cc(C(=O)OCC)c1
-3.1%	-4.0	-1.9%	2.4%	COc1cccc(NC(=O)COC(=O)COc2ccccc2[N+](=O)[O-])c1
2.0%	x	-0.1%	-7.6%	CSc1cccc(NC(=O)c2cc(S(=O)(=O)N3CCCC3)cn2C)c1
3.5%	x	-3.3%	-12.1%	COC(=O)[C@H](CCSC)NC(=O)c1cc2c(cn1)[nH]c1ccccc12
-1.8%	x	x	1.3%	COc1cccc(CNC(=O)COC(=O)c2cc(Br)c(Br)s2)c1
-0.6%	x	x	-14.7%	C[C@]12c3[nH]c4cc(-c5ccco5)ccc4c3CCN1C(=O)[C@@H](CC(=O)NCCCn1ccnc1)C[C@@H]2C(=O)N1CCOCC1
-0.3%	1.2	1.1%	-4.0%	COc1ccc(Oc2nnc(-c3ccccc3)cc2C#N)cc1
4.7%	-22.6	15.4%	16.4%	CCOc1ccc(N(CC(=O)Nc2cccc(OC)c2)S(=O)(=O)c2c(C)noc2C)cc1
0.0%	x	x	-9.5%	O=S(=O)(c1cccc(F)c1)N1CCN(c2ncnc3scc(-c4ccc(F)cc4)c23)CC1
0.0%	-0.8	-4.3%	-9.7%	COc1ccc(-n2nc(C)c3onc(C)c3c2=O)cc1
-4.4%	2.9	-28.4%	14.1%	O=C(c1ccco1)N1CCN(c2nc(-c3ccc(F)cc3)cs2)CC1
6.5%	3.8	-58.0%	-1.3%	COC(=O)c1ccc(OCc2cc(=O)n3ccsc3n2)cc1
0.5%	-5.3	-2.3%	-11.1%	O=C1CC(N2CCN(C/C=C/c3ccccc3)CC2)C(=O)N1Cc1cccs1 (stereo unspecified)
0.3%	x	2.1%	-6.6%	COc1ccc(N(C(=O)CNC(=O)c2ccco2)C(C(=O)NCC2CCCO2)c2ccccc2)cc1OC (stereo unspecified)
2.6%	3.2	-1.6%	11.3%	CCN(C(=O)c1cc(Cl)ccc1OC)c1ccccc1
-5.4%	x	1.4%	16.3%	Cc1ccc2nc3c(nc2c1C)CCCC3
0.6%	0.1	-0.6%	32.0%	CCC(=O)N(Cc1ccco1)Cc1cc2cccc(C)c2n2nnnc12
7.1%	x	x	-4.3%	O=C(NCc1ccco1)C1CCN(S(=O)(=O)c2ccccc2C(F)(F)F)CC1
-2.1%	x	-2.2%	-10.2%	Cc1ccccc1CNC(=O)C(=O)NCC1OCCCN1S(=O)(=O)c1cccs1 (stereo unspecified)
-2.9%	-2.3	17.5%	-3.3%	CCOc1ccccc1CNc1ccc(O)cc1
u	-2.4	-7.1%	-0.7%	CCN1CCN(CCOc2ccc(Cl)cc2)CC1
-2.2%	x	-15.4%	1.9%	CC(=O)Nc1ccc(S(=O)(=O)N(C)CC(=O)OC(C)C(=O)N(C)C2CCCCC2)cc1 (stereo unspecified)
x	-17.0	-7.0%	x	O=[N+]([O-])C(=c1ccc2c(c1)N1C3=C(CCCC3)CC3CCCCC31N=2)[N+](=O)[O-] (stereo unspecified)
